CSC inhib – cancer stem cell viability inhibitors, primary screen, luminescence; 300,000 tested, 1.1% active; cancer stem cell-like cells viability; inhibition, % at 7.5 µM; AID 2717, 2010;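 active means mean at 75% or more and at least half the replicates too; inconclusive means mean and replicates disagree; tested in HMLE shEcad cells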;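 further: 0% = median of negative and 100% = median of positive control wells; the first replicate is given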
eIF4H FP inh – human eIF4H binding inhibitors, primary screen, translation initiation inhibitor project, biochemical, uHTS, fluorescence polarization | 290,000 tested, 0.94% active | inhibition, % at 35 µM | eIF4H fluorescence polarization binding assay;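 active means 50% or more with normal probe brightness, or confirmed in later tests; inconclusive means above 50% with abnormal brightness, or retests that disagree; inactive means below 50% or failed in later tests; about a fifth of its hits are not listed in these tables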;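 further: calls also rest on retests at 20 µM and on dose response follow-up; 0% = protein and probe with vehicle and 100% = probe without protein; strong numbers were not always called active; many hits fall short of the cut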
PABP polyA inh – PABP poly(A) RNA binding inhibitors, primary screen, biochemical, fluorescence polarization, uHTS | Polyadenylate-binding protein 1 (Homo sapiens), P11940 | inhibition, % at 35 µM | 290,000 tested, 1% active | AID 2014, 2009;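 active means 50% or more with normal probe brightness, or confirmed in later tests; inconclusive means above 50% with abnormal brightness, or retests that disagree; inactive means below 50% or failed in later tests; about a fifth of its hits are not listed in these tables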;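 further: calls also rest on retests at 20 µM and on dose response follow-up; controls were probe without protein and protein plus probe with vehicle; some compounds called inactive have numbers as strong as hits; many hits fall short of the cut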
Target sequence (P11940 whole entry, looked up): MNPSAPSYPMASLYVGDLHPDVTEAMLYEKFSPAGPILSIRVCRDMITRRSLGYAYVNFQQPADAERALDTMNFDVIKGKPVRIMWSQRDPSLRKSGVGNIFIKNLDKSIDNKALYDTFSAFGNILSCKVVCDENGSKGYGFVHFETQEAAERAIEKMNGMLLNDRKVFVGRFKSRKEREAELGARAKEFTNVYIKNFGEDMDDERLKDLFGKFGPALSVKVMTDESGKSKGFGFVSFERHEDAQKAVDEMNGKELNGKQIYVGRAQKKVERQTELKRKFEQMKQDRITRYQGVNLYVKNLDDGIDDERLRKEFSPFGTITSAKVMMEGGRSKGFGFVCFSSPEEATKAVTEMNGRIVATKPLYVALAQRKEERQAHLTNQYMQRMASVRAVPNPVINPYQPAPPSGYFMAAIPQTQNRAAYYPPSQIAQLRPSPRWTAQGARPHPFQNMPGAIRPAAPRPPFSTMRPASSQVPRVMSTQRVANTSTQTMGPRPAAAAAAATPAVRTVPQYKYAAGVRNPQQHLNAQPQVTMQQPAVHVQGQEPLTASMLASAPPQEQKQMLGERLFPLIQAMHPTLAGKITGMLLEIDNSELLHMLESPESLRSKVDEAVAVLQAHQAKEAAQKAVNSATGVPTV
HIV Env fusion – inhibitors of HIV-1 Env-driven cell-cell fusion, primary screen, HeLa-JRFL effector, CEM21 target cells, luciferase. inhibition, % at 12.3 µM. 360,000 tested, 1.1% active;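 active means mean replicate inhibition score of at least 50 and every replicate individually at or above 50; inconclusive means only one of the two criteria met; inactive means mean below 50 and not all replicates reaching 50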;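 further: 0% = plate neutral controls and 100% = maraviroc near 300 nM; one replicate is shown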
MT1-MMP act inh – blockers of MT1-MMP proenzyme processing, primary screen, HT1080 RFP-PRO-GFP cells, GFP/RFP fluorescence; Matrix metalloproteinase-14 (Homo sapiens), P50281; GFP/RFP ratio fluorescence, overnight; percent of plate control window, DMSO zero; 360,000 tested, 0.061% active; GFP/RFP ratio change, % at 20 µM;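 active means GFP/RFP ratio change of at least 30% with cell ATP level not reduced by more than half and red fluorescence within 50% of control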; further: strong numbers were not always called active
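Assay system – RFP-PRO-GFP reporter HT1080 cells · Compound dosing – single dose of 20 µM compound, 1% DMSO final · Incubation – overnight compound exposure at 37 °C · Measure – GFP/RFP fluorescence ratio · Benchmarks – DMSO wells and RFP-L50D-GFP cells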
Rce1 inhib – yeast Rce1p protease inhibitors, primary screen, biochemical, fluorescence, cell-free homogeneous | calls only | CAAX prenyl protease 2 (Saccharomyces cerevisiae (strain ATCC 204508 / S288c)), Q03530 | yeast membranes, quenched prenylated peptide cleavage fluorescence | 290,000 tested, 0.27% active;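 active means fall in fluorescence gain of 50% or more versus controls, with final raw signal at or below 3038400; inconclusive means same 50% fall but final raw signal above 3038400; inactive means fall in fluorescence gain under 50%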;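 further: plate controls were neutral control wells for no effect and wells lacking membranes for full effect; tested at 10 µM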
Target sequence (Q03530 whole entry, looked up): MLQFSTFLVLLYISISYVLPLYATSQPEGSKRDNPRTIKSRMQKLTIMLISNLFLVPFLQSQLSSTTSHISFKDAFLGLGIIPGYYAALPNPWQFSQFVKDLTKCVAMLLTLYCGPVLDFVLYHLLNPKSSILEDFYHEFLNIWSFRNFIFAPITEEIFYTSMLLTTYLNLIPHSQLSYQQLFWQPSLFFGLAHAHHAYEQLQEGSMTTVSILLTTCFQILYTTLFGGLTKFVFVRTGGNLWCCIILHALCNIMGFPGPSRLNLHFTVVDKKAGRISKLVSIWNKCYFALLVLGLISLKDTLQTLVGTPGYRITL
Yeast UUG start – modulators of yeast start codon fidelity, primary screen, whole organism, S. cerevisiae, single point, plate reader; activity score, % at 18.7 µM; S. cerevisiae UUG-firefly luciferase reporter, luminescence/redox ratio; 350,000 tested, 0.13% active; AID 602363, 2012;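 active means replicate mean at a twofold rise or more, about +100% in these data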;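 further: firefly luciferase made from a UUG start codon reports start codon fidelity; reporter light over untreated wells divided by growth signal over untreated wells; some hits fall short of that in this replicate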
eIF4H FP inh retest – second read-out of eIF4H FP inh, no call of its own (marks repeat the call); inhibition, %; compound at 20 µM; confirmation average;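 mean of two retest wells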
PABP polyA inh retest – also measured in PABP polyA inh; calls as there; inhibition, %; compound at 20 µM; confirmation repeats;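 mean of two retest wells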
MT1-MMP act inh RFP – second read-out of MT1-MMP act inh, no call of its own (marks repeat the call); RFP signal change, %; measured here: RFP expression control read;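 0 = vehicle wells; hits needed this value within 50% of zero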
* hit, by the source's call; i = inactive; ? = inconclusive; . = no result given. The list is partial; count on the stated rates, not on these rows.

SMILES	CSC inhib	eIF4H FP inh	PABP polyA inh	HIV Env fusion	MT1-MMP act inh	MT1-MMP act inh RFP	Rce1 inhib	Yeast UUG start	others
COc1cccc(C(=O)C2CCCN(Cc3ccc(OC)c(Cn4cncn4)c3)C2)c1 (stereo not drawn)	-1.4	10.6	4.9	1.4	-0.6	4.7	i	8.3
COc1c2ccoc2c(OC[C@@H](O)C(C)(C)OC)c2oc(=O)ccc12	-12.3	9.8	-0.5	0.1	4.5	0.6	i	2.0
COc1ccc(C)cc1-n1nnnc1SCc1cc(=O)n2cc(C)ccc2n1	8.7	-12.2	5.4	.	-11.9	-17.2	i	-2.3
COc1ccc(NC(=O)CN2CCN(S(=O)(=O)N3CCCCCC3)CC2)cc1	-12.9	-8.3	-2.3	2.0	1.3	2.1	i	-9.1
CCOc1ccc(-c2cn[nH]c2N)cc1	-8.2	6.2	1.3	.	5.0	-4.0	i	-25.2
CCc1ccc(OC2=NS(=O)(=O)c3ccccc32)cc1	.	-2.0	-3.5	14.1	-3.3	-0.5	i	.
Cc1cccc(/C=N/NC(=O)c2ccc(NC(=O)c3ccc(Cl)cc3)cc2)n1	3.5	-19.3	8.8	-7.3	4.3	0.7	.	-23.6
CCOc1cc(C)c(C(C)C)cc1S(=O)(=O)N1CC(C)OC(C)C1 (stereo not drawn)	5.2	-6.2	-7.0	.	0.5	-3.6	i	12.0
C#CCN1C(C)=CC(=O)[C@@H](O)[C@H]1c1ccccc1Br	.	.	.	4.7	3.8	8.2	.	-12.2
Cc1cc(C)cc(CN2CCC(Oc3ccc(C(=O)N4CCCC4)cc3)CC2)c1	.	-9.7	-4.0	8.5	-2.0	-1.0	i	-10.0
CCOC(=O)c1c(NC(C)=O)sc2c(OC)cccc12	-12.0	-12.0	6.3	-56.0	-2.8	-3.2	.	-31.0
Cc1cc(N(C)C)nc(SC(C)C)n1	-4.4	-9.6	-2.4	.	-2.8	0.0	i	-24.1
Cc1ccc(NCC(=O)N/N=C/c2cccc(Br)c2)cc1	-1.3	-10.2	8.8	-13.9	1.8	2.2	i	-1.6
N#C/C(=C/c1ccccc1OCc1ccc(F)cc1)c1ccc(C(=O)O)cc1	-8.1	16.6	65.2*	-116.4	-3.9	0.3	i	-14.9	eIF4H FP inh retest=10.8;PABP polyA inh retest=92.2*
CCc1cc(-c2n[nH]c(=S)n2CC(C)C)cs1	0.6	-3.3	67.8	-5.0	3.8	3.6	i	.	eIF4H FP inh retest=6.9;PABP polyA inh retest=-3.1
CCOc1ccc(C(C)(C)C)cc1S(=O)(=O)Nc1ccncc1	-9.0	-2.9	4.7	-6.4	5.0	9.9	i	-20.9
CCOC(=O)c1c(C)[nH]c(C(=O)Nc2cc(OCC)c(N3CCOCC3)cc2OCC)c1C	.	.	.	-5.4	4.2	0.0	.	2.6
Cc1c(-n2c(SCC(=O)O)nnc2-c2ccccc2Br)c(=O)n(-c2ccccc2)n1C	-2.0	-10.6	7.5	10.6	-6.2	-0.6	i	-28.8
Cc1ccc(C(=O)NNCC(=O)Nc2ccc(Cl)cc2F)cc1	-4.9	.	.	.	0.1	0.0	.	-12.0
Cn1cnc2c(=O)sc3ccccc3c21	-18.2	.	.	4.9	-3.6	-1.6	i	-11.3
COc1ccc(N2CCN(C(c3cc(OC)ccc3OC)c3nnnn3CC3CCCO3)CC2)cc1 (stereo not drawn)	18.9	13.7	5.2	.	-2.3	-1.3	i	-11.4
O=C(NCC1CC1)C1Cc2c(-c3ccc(Cl)cc3)ccnc2O1 (stereo not drawn)	.	.	.	-7.9	-1.4	2.0	.	-10.5
CC#CC[N+](C)(CC#CC)CC(=O)c1ccccc1	1.2	6.7	9.7	-16.0	1.2	3.8	i	.
COc1cc(CNCc2ccccn2)ccc1OCC(=O)NC1CCCCC1	1.1	-6.3	0.7	13.6	6.1	6.0	i	.
Cc1nn(CC(=O)NCCCc2ccccc2)c(C)c1[N+](=O)[O-]	-7.9	3.1	-4.5	-7.3	2.8	0.8	i	.
CCCCn1c(SCc2ccc(Cl)cc2)nc2c1c(=O)[nH]c(=O)n2C	50.7	-4.5	7.9	.	5.2	-5.2	i	-15.1
Cc1ccc(S(=O)(=O)N2CCN(S(C)(=O)=O)C2)cc1	-3.9	-2.9	-12.3	.	10.9	6.0	i	.
CCn1c(SCC(=O)Nc2nnc(C)s2)nnc1-c1ccncc1	.	-2.2	12.0	-7.8	-2.3	-4.3	i	-13.0
Cc1cccc(NC(=O)CC(=O)Nc2cccc(C)c2)c1	3.0	-6.1	0.1	4.4	-0.9	1.3	i	-5.4
Cc1ccc(OCCCC(=O)Nc2nnc(C3CCCO3)s2)c(C)c1 (stereo not drawn)	3.9	-4.8	-3.4	8.0	-4.8	-5.7	i	-1.1
S=C1COC(c2ccccc2)N1c1ccccc1 (stereo not drawn)	-8.4	4.0	0.3	21.3	0.5	2.5	i	-17.1
CCN(CC(=O)Nc1cc(S(=O)(=O)N2CCCCC2)ccc1C)Cc1ccccc1	25.4	.	.	52.8	-6.9	-9.8	i	-19.8
N#CC1=C2SCN(Cc3ccco3)CN2C(=O)CC1c1ccc(Cl)cc1 (stereo not drawn)	-3.0	12.0	41.2	16.6	-6.2	6.5	i	-17.1
Cc1ccc(/C=C/C(=O)c2nc3ccccc3[nH]2)cc1	28.0	-1.6	-6.9	-124.7	-22.7	-18.4	i	-16.7
O=C(COc1ccc2ccccc2c1)NC1=NCCS1	7.1	2.1	10.5	-149.9	-5.6	4.0	i	-6.7
CCC(c1nc2ccccc2c(=O)n1-c1nc2ccccc2s1)N1C(=O)c2ccccc2C1=O (stereo not drawn)	1.7	-7.3	-13.3	-11.5	-1.5	-4.9	i	.
COc1ccc(OC)c(S(=O)(=O)N2CCCC(C(=O)NCc3ccccn3)C2)c1 (stereo not drawn)	-7.6	-1.8	14.9	9.0	-0.5	-2.6	.	-27.1
COc1ccc(-c2cn(-c3ccc(C)cc3C)c(=O)[nH]2)cc1OC	-3.8	-3.8	-3.6	.	-2.2	-21.0	i	-19.1
CCOC(=O)c1cc(-c2csc(-c3ccc(C(C)(C)C)cc3)n2)on1	12.7	-5.7	-4.4	20.8	3.2	-4.9	i	.
CCOc1ccccc1C1C(C(N)=O)=C(C)Nc2nc(-c3ccc(OC)cc3)nn21 (stereo not drawn)	-0.7	-4.5	-6.4	-69.3	-1.2	-2.3	i	-18.2
Cc1ccc(CN2CCN(/N=C/c3ccc(C(=O)O)cc3)CC2)cc1	3.4	85.0*	2.5	7.6	1.7	0.8	i	-16.4	eIF4H FP inh retest=86.1*;PABP polyA inh retest=49.9
O=C(O)CCCC(=O)N1CCOCCOCCOCCOCC1	-10.1	-7.2	13.5	-0.7	-0.2	0.2	i	-5.5
O=C(O)c1ccc(C(=O)Nc2cccc(NC(=O)C3CCCO3)c2)cc1 (stereo not drawn)	5.3	-3.5	4.7	.	4.7	-1.9	i	-2.9
COC(=O)c1ccccc1NC(=O)CSc1nc2c(c(=O)[nH]1)CCC2	16.8	-5.5	55.4	-14.8	0.4	1.0	i	-12.9	eIF4H FP inh retest=-15.2;PABP polyA inh retest=11.5
O=C(OCc1ccc(C(=O)c2ccccc2)cc1)c1cccc(-c2nnc(-c3ccccc3)o2)c1	-11.8	3.5	-3.5	.	-0.5	-12.4	i	-13.4
CC(C)(C)NC(=O)NC(=O)COc1ccccc1C#N	-3.5	-7.4	-2.5	-398.5	3.2	3.7	i	-1.9
O=C(CSc1nc2ccccc2c(=O)[nH]1)N1CCOCC1	3.9	12.7	5.8	.	-1.1	1.5	i	0.3
COc1ccc(-c2nc(-c3ccccn3)no2)cc1	87.6*	-3.7	4.2	62.5*	2.0	-0.6	i	.
CCN1CCN(C(=S)c2ccc(OCC(=O)N3CCOCC3)cc2)CC1	-3.7	-10.7	-2.7	-23.3	0.6	1.7	i	-4.3
CC(C)C1NC(=S)N(C2CCCCC2)C1=O (stereo not drawn)	-2.5	-5.3	-3.0	0.8	0.7	2.8	i	.
O=C(Nc1cccc(C(=O)N2CCOCC2)c1)C1CCCC1	.	.	.	-8.3	0.2	0.6	.	4.1
CN(C)S(=O)(=O)c1ccc(C(=O)NCC[N+]2(C)CCCCCC2)o1	-9.5	-8.9	45.9	13.6	-4.4	-2.4	i	1.8
Cc1ccc(CNC(=O)C2CSC3(C)CCC(=O)N23)cc1 (stereo not drawn)	-16.4	.	.	?	-6.4	-1.2	.	-15.6
Cc1ccc2ccc(C3C(=O)c4ccccc4C3=O)nc2c1	-0.4	.	.	.	-9.7	1.7	i	-6.8
COc1ccc(CCNC(=O)CN(C2CCCCC2)S(C)(=O)=O)cc1OC	-11.3	0.7	39.7	-8.0	1.9	4.5	i	-7.3
O=C(CSc1nc2ccccc2o1)NCC1CCCO1 (stereo not drawn)	1.6	.	.	1.5	-0.1	1.6	i	-10.5
CCC(=O)Nc1ccccc1C(=O)OC(c1ccccc1)c1ccccc1	0.8	-5.3	4.9	1.0	1.5	3.8	i	.
Cc1cc(/C=C(\C#N)C(=O)NCc2ccccc2)cc(C)c1O	1.2	-0.3	-2.3	-2.8	-6.1	-4.1	i	-14.9
O=C(O)CCCCCn1c(SCc2cc(=O)n3ccccc3n2)nc2ccsc2c1=O	13.7	1.1	4.9	-6.6	-2.4	-1.4	i	.
CCCC(=O)c1cc(F)c(N2CCN(S(=O)(=O)c3ccccc3)CC2)cc1C	21.0	-0.3	1.3	.	-13.4	-10.9	i	5.3

Carrying on:
SMILES	CSC inhib	eIF4H FP inh	PABP polyA inh	HIV Env fusion	MT1-MMP act inh	MT1-MMP act inh RFP	Rce1 inhib	Yeast UUG start	others
Cc1cc2c(cc1C)CSC(c1c(O)ccc3ccccc13)SC2	111.6*	-2.8	0.9	14.6	-1.9	-9.6	i	-14.0
Cc1ccc(-c2nc3ccccc3s2)cc1S(=O)(=O)N1CCOCC1	-7.4	1.9	1.4	-36.3	2.6	-9.3	i	-24.0
O=C(O)C1CCCCC1C(=O)NCCC(c1ccccc1)c1ccccc1 (stereo not drawn)	-9.3	11.2	8.1	-27.0	1.0	1.2	i	-5.7
N#CC1=C(N)C(C#N)(C#N)C2(CCC3(CC2)OCCO3)C2CC3(CC=C12)OCCO3 (stereo not drawn)	-3.9	-1.8	-1.7	-20.1	-4.5	3.8	i	-12.5
Cc1ccc(CN2C(=O)CSc3ccc(C(=O)NC4CC4)cc32)cc1	.	-7.5	-2.1	-0.8	0.9	1.8	i	-10.5

Three structures already listed, arranged by number of heavy atoms, largest number first:
SMILES	CSC inhib	eIF4H FP inh	PABP polyA inh	HIV Env fusion	MT1-MMP act inh	MT1-MMP act inh RFP	Rce1 inhib	Yeast UUG start	others
Cc1c(-n2c(SCC(=O)O)nnc2-c2ccccc2Br)c(=O)n(-c2ccccc2)n1C	-2.0	-10.6	7.5	10.6	-6.2	-0.6	i	-28.8
O=C(O)c1ccc(C(=O)Nc2cccc(NC(=O)C3CCCO3)c2)cc1 (stereo not drawn)	5.3	-3.5	4.7	.	4.7	-1.9	i	-2.9
CC(C)(C)NC(=O)NC(=O)COc1ccccc1C#N	-3.5	-7.4	-2.5	-398.5	3.2	3.7	i	-1.9
